Screening results: PubChem BioAssay, SRMLSC
H5N1 antiviral: MDCK cell protection from H5N1 avian flu. cytopathic effect, luminescence, 72 h; active compounds read high; no value below 0 was filed and about half of the inactive calls have no number; reference of the scale not given here. 96,000 tested, 0.07% active. inhibition, % at 50 µM; in the data active means inhibition above about 25%
* hit, by the source's call; i = inactive.

structure | H5N1 antiviral
Cc1ccc2nc3c(cc(C#N)c(=O)n3CC3CCCO3)c(=O)n2c1 (stereo unspecified) | 1.6
c1ccc(-c2nc3ccccn3c2NCc2ccc3c(c2)OCO3)cc1 | 0.3
CC[n+]1c(/C=C2/C=C(C)CC(C)(C)C2)sc2ccc(OC)cc21 | 3.8
COc1ccc(NC(=O)c2cc3cc(OC)ccc3oc2=N)cc1 | i
CCNS(=O)(=O)c1ccc(NC(=O)c2ccccc2)cc1 | 0.5
COc1cc(C(=O)NC(=S)Nc2ccc(Cl)c(C(=O)O)c2)cc(OC)c1OC | i
CCCSc1nsc(NC(=O)C(c2ccccc2)c2ccccc2)n1 | 5.7
CC1(C)CC(=O)C2=C(C1)Nc1nc(SCCN3CCOCC3)[nH]c(=O)c1C2c1cccs1 (stereo unspecified) | 1.4
O=C(Nc1ccc(OC(F)F)c(Cl)c1)Nc1ccc2c(c1)OCO2 | i
CS(=O)(=O)N(CC(=O)Nc1ccccc1Sc1ccccc1)c1ccc(F)cc1 | 0.9
CC(C)c1ccc(C2CC(=O)N3CN(C)CSC3=C2C#N)cc1 (stereo unspecified) | 2.1
Cc1cc2oc(=O)cc(CN3CCCCC3C)c2c(C)c1Cl (stereo unspecified) | 0.9
COc1ccc(S(=O)(=O)n2cnc3cc(C)c(C)cc32)cc1C | 1.7
CCc1sc(N(C(=O)Cc2ccccc2)c2ccc(F)cc2)nc1-c1ccccc1 | 1.4
CCCCOC(=O)Nc1nc2ccccc2s1 | i
Cc1nn(CC(=O)NCCN2CCOCC2)c(C)c1[N+](=O)[O-] | 0.1
CC(C)CC(=O)Nc1nc2c(c(=O)[nH]1)CCCC2 | 0.8
CC1CCN(CCCNC(=O)C2CCC(=O)N2C2CCCC2)CC1 (stereo unspecified) | i
O=C(O)c1[nH]c2ccc(Cl)cc2c1CC(=O)N1CCN(C(=O)c2ccco2)CC1 | 0.9
Cc1c(NC(=O)CSc2nnc3c4ccccc4n(CCc4ccccc4)c3n2)c(=O)n(-c2ccccc2)n1C | 5.1
CCOC(=O)N1CCC(c2cc(=O)n3[nH]cc(C(=O)OC)c3n2)CC1 | i
Cc1cc(C(F)(F)F)n2ncc(-c3ccc(F)cc3)c2n1 | i
CCOC(=O)N1CCN(C(=O)C2CCN(S(=O)(=O)N(CC)CC)CC2)CC1 | 1.6
O=C(CSc1nnc(-c2ccc(O)cc2)o1)N1CCOCC1 | i
COC(=O)c1nnn(CC(=O)Nc2cccc(OC)c2)c1C(=O)OC | 0.3
COc1ccccc1S(=O)(=O)Cc1ccc(C(=O)NCc2ccc3c(c2)OCO3)o1 | 0.3
Cc1ccnc(N2CCC(C(=O)Nc3cccc(C(F)(F)F)c3)CC2)n1 | 1.4
O=C(OCC(=O)N1CCN(C(=O)c2ccco2)CC1)c1cc(-c2ccccc2)nc2ccccc12 | 0.1
c1ccc(Cc2nn3c(Cn4nnc5ccccc54)nnc3s2)cc1 | 0.8
CC/C(=N\NS(C)(=O)=O)c1ccccc1 | 1.4

Reformatted: results already given.
compound: COc1ccc(S(=O)(=O)n2cnc3cc(C)c(C)cc32)cc1C
  H5N1 antiviral: 1.7

compound: CCNS(=O)(=O)c1ccc(NC(=O)c2ccccc2)cc1
  H5N1 antiviral: 0.5

New compounds follow:
structure | H5N1 antiviral
Cc1nn(C)c(C)c1S(=O)(=O)N(CC(=O)NC1CCCCCC1)c1ccc(C(C)C)cc1 | 0.1
Cc1nc(NS(=O)(=O)c2ccccc2)sc1NC(=O)OC(C)C | i
COc1cccc(/C=N/NC(=O)CCc2c(C)n[nH]c2C)c1 | i
COc1ccc(-c2oc(NC(=O)CSc3ncn[nH]3)c(C#N)c2-c2ccc(OC)cc2)cc1 | 1.5
Cc1ccc(CC(=O)Nc2ccccc2N2CCOCC2)cc1C | 0.5
O=C(Nc1cccc(S(=O)(=O)C(F)F)c1)c1ccc(Cl)c(S(=O)(=O)N2CCOCC2)c1 | 0.4
CCOC(=O)c1nnc(-c2ccccc2)nc1NCc1ccccc1 | 0.5
CCn1c2ccccc2c2cc(NC(=O)CSc3nnc(-c4ccccc4OC)n3N)ccc21 | 0.7
CCc1ccc(-c2nc(CN3CCC(C(=O)NCc4ccco4)CC3)c(C)o2)cc1 | 2.1
O=C(CCC1CCCCC1)Nc1ncn[nH]1 | i
CCCCC(=O)OCCNC(=O)c1cc2ccccc2oc1=O | i
COC(=O)c1cc2ccsc2n1CC(=O)N(C)c1ccccc1 | i
CCOC(=O)CN1CC23C=CC(O2)C(C(=O)NC2CCCCC2)C3C1=O (stereo unspecified) | 0.1
CC(C)Cn1c(SCC(=O)N2CCN(S(=O)(=O)c3ccccc3)CC2)nc2ccccc21 | 0.1
CCn1c(C(=O)N2CCC(C(=O)N3CCN(c4ccccn4)CC3)CC2)cc2sccc21 | i
COc1ccccc1C(OC(=O)c1cccs1)C(=O)NCc1ccco1 (stereo unspecified) | 0.7
CCOC(=O)c1c(-c2ccccc2)nc2ccccn12 | i
CC1(C)Cc2ccccc2-c2nnnn21 | i
CCN1CCCC1CNC(=O)c1cc2c(-c3cccc(OC)c3)nn(C)c2s1 (stereo unspecified) | i
O=C(Cn1nnc(-c2ccccc2Cl)n1)N/N=C/c1ccc2c(c1)OCO2 | 1.7
Cc1oc2ccccc2c1-c1cn2c(n1)SCC2 | i
Fc1ccccc1NC(=S)NN(Cc1ccccc1)c1ccccc1 | i
OC12CCCCC1C(c1ccc3c(c1)OCO3)N(Cc1ccc(F)cc1)CC2 (stereo unspecified) | i
CCOC(=O)c1c(-c2ccncc2)csc1N | 0.7
CN1CC2(C)CN(C(c3ccccc3)c3ccccc3)CC(C)(C1)C2O (stereo unspecified) | i
COc1cccc(-n2nc3c(=S)[nH]nc(C)c3c2C)c1 | 0.2
CC(=O)/C(=N/Nc1ccccc1C)N1CCOCC1 | i
Fc1ccccc1CNc1cc(Cl)cc(Cl)c1 | i
CCOc1ccc2nc(NC(=O)C(CC)Sc3nc(C)cc(=O)[nH]3)sc2c1 (stereo unspecified) | 0.2
Cc1ccc(C)c(N2CCN(c3nc4ccccc4c(=O)n3Cc3ccccc3)CC2)c1 | i

An excerpt from above in order of count of non-hydrogen atoms, smallest number first:
structure | H5N1 antiviral
Fc1ccccc1CNc1cc(Cl)cc(Cl)c1 | i
Fc1ccccc1NC(=S)NN(Cc1ccccc1)c1ccccc1 | i
CN1CC2(C)CN(C(c3ccccc3)c3ccccc3)CC(C)(C1)C2O (stereo unspecified) | i
CCOc1ccc2nc(NC(=O)C(CC)Sc3nc(C)cc(=O)[nH]3)sc2c1 (stereo unspecified) | 0.2
CCN1CCCC1CNC(=O)c1cc2c(-c3cccc(OC)c3)nn(C)c2s1 (stereo unspecified) | i
CCc1ccc(-c2nc(CN3CCC(C(=O)NCc4ccco4)CC3)c(C)o2)cc1 | 2.1
CCn1c2ccccc2c2cc(NC(=O)CSc3nnc(-c4ccccc4OC)n3N)ccc21 | 0.7

Carrying on:
structure | H5N1 antiviral
COc1ccc(C(=O)/C(=C/c2cccs2)c2nc3ccccc3o2)cc1 | i
Cc1cccc(-n2c(C)nc3cc(C(=O)N4CCC5(CC4)OCCO5)ccc32)c1 | i
CCOC(=O)c1c(N)c(C#N)c2n1CCCCC2 | 0.4
O=[N+]([O-])c1cccc(Cl)c1NCCNc1ncc(C(F)(F)F)cc1Cl | i
CNC(=O)CC12CC3CC(CC(C3)C1)C2 | i
O=C(CCN1CCC(c2ccccc2)C1)c1ccccc1 (stereo unspecified) | 1.5
O=c1cc(CO)occ1OCc1cccc(C(F)(F)F)c1 | 0.0
O=C1CCCC(=O)C1=Cc1c[nH]c2ccccc12 | i
COC(=O)c1ccc2c(c1)nc(C)n2CCO | 0.6
CCOC(=O)c1sc(=NC(=O)c2ccc(OC)c(OC)c2)n(C)c1C | i
Cc1cccc(Nc2ccccc2C(=O)OCC(=O)N2CCOCC2)c1C | 0.1
OC1(c2cccc(C(F)(F)F)c2)CCN(c2ccc(-c3ccccc3)nn2)CC1 | i
CCN(CC)c1ccc(C2C(C(=O)Nc3ccccn3)=C(C)NC3=C2C(=O)CC(C)(C)C3)cc1 (stereo unspecified) | 0.5
OCCNc1nc2ccccc2n1-c1ncnc2sc3c(c12)CCC3 | i
COc1cc(C(=O)O)ccc1OCc1c(C)noc1C | i
CCOC(=O)c1c(O)c2c([nH]c1=O)CCCC2 | 0.2
Cc1ccc(-n2c(SCC(=O)Nc3nccs3)nc3c(c2=O)SCC3)cc1 | i
Cc1nn(-c2ccccc2)c2c1C(c1ccncc1)C(C#N)=C(N)O2 (stereo unspecified) | i
CC(=S)/C=C1\Sc2ccccc2N1C | i
N#CC1=C(SCc2ccccc2)NC(=O)CC1c1cccc(O)c1 (stereo unspecified) | i
Cc1nnc(NC(=O)c2cccc(S(=O)(=O)N3CCOCC3)c2)s1 | 0.1
COc1cc(NC(=O)Cn2nnc(-c3ccncc3)n2)cc(OC)c1 | i
O=C(NCc1ccco1)c1nc2ccccc2s1 | 1.2
CC1(C(=O)N2CC3(CC(c4ccccc4)=NO3)C[C@H]2C(=O)NCC(N)=O)CC1 (stereo partly specified) | 0.1
CNC(=O)N(c1ccccc1)c1ccccc1 | i
O=C(Nc1ccccc1N1CCOCC1)c1cc(-c2ccco2)nc2ccccc12 | 0.7
CC1(C)CC(=O)C(C=NCCc2ccc(O)cc2)=C(O)C1 | 1.5
CCn1nnc(NC(=O)c2cccc(-c3cc4ccccc4oc3=O)c2)n1 | 0.2
O=[N+]([O-])c1nn(-c2ccc3c(c2)OCCO3)n(O)c1=NCc1ccccc1Cl | i
CCCOc1ccc(C(=O)Nc2ccc(N3CCN(C(C)=O)CC3)cc2)cc1 | 5.1
COc1ccc(-c2nnc3n2N=C(C)CS3)cc1 | 0.8
COC(=O)Cn1c(C)c(C(C)=O)c(C(C)=O)c1C | 2.1
COc1c(C)cc(Br)cc1C(=O)Nc1ccc(N2CCN(S(C)(=O)=O)CC2)cc1 | 0.5
C=C(C)c1cccc(C(C)(C)NC(=O)N2CC(C)OC(C)C2)c1 (stereo unspecified) | 1.0
N#Cc1cccc(-c2cn(S(=O)(=O)c3ccc(Cl)cc3)nc2N)c1 | 0.3
CC(=O)N1CCc2cc(Br)cc(S(=O)(=O)NCC3CCCO3)c21 (stereo unspecified) | i
COc1ccc(NS(=O)(=O)c2ccc3oc(SC4CCOC4=O)nc3c2)cc1 (stereo unspecified) | 0.9
O=C(Nc1ccc(N2CCN(C(=O)c3ccco3)CC2)c(Cl)c1)c1c(F)c(F)c(F)c(F)c1F | i
Cc1ccc(C)c(N2CCN(C(=O)c3cc4ccccn4n3)CC2)c1 | i
CCOC(=O)c1ccc(Nc2nc(C(=O)OCC)nc3ccccc23)cc1 | 1.0
CC(C)C(=O)Nc1ccc(C(=O)N2CCCCCC2)cc1 | i
O=C(Nc1cccc(F)c1)/C(=C\c1ccco1)NC(=O)c1cccs1 | 0.4
O=C(N/N=C/c1c(Nc2cccc(C(F)(F)F)c2)nc2ccccn2c1=O)c1ccccc1 | 0.4
CN(C)c1ccc(C=Nc2cnn(C)c2C(N)=O)cc1 | i
CCOC(=O)c1[nH]c(C)c(C(=O)N2CCc3ccccc32)c1C | i
C(=N\c1nc2ccccc2n1CCN1CCCCC1)/c1cccs1 | i
O=c1cc(C(F)F)oc2c1ccc1ccccc12 | i
CCN(CC)S(=O)(=O)c1ccc(Oc2ccccc2)cc1 | 0.5
Cc1nc2sccc2c(=O)n1-c1ccccc1Cl | i
CCOC(=O)C1C(=O)NC(c2ccccc2)=NC1c1ccccc1 (stereo unspecified) | 3.1
CN1CCN(CCCNC(=O)Nc2cccc3ccccc23)CC1 | i
COC(=O)c1cccc(C(=O)Nc2ccc(C)cc2Br)n1 | i
CN(C)c1nc2ccc(OCCN3CCCCC3)cc2s1 | 0.4
Cc1ccc2c([N+](=O)[O-])c(C)ccc2n1 | i
CCOC(=O)c1cc(CC)sc1NC(=O)COC | i
CCOc1ccc(NC(=O)CSc2n[nH]c(=O)n2-c2ccccc2)cc1 | 0.7
COc1ccc(NS(=O)(=O)c2cccc(C(=O)O)c2)cc1 | 0.7
COc1ccc(NC(C)=O)cc1NC(=O)CN1CCN(CC(=O)Nc2ccc(Cl)cc2)CC1 | 2.2
CCc1[nH]nc2c1C(c1cccnc1)C(C#N)=C(N)O2 (stereo unspecified) | i
COc1cc(C(=O)Nc2ccccc2-c2nnn(CC(N)=O)n2)cc(OC)c1OC | 0.1

(list continues)
structure | H5N1 antiviral
Cc1occc1-c1nnc(SCC(=O)N2CCOCC2)n1Cc1ccco1 | 5.6
COc1ccccc1OCc1nc(Cc2ccc(Cl)cc2)no1 | i
CC(=O)c1c(N)n(C)c(=O)n(C)c1=O | 1.8
CC1CCCC(NC(=O)CSc2ncccc2C(=O)O)C1C (stereo unspecified) | 0.1
O=C(NCc1cccs1)c1cccc(Nc2nc3ccc(Br)cc3[nH]2)c1 | i
O=C(Cn1c(=O)[nH]c2ccsc2c1=O)N1CCN(c2ccc(F)cc2)CC1 | 1.5
Cc1nnc(SCC(=O)Nc2ccc(S(=O)(=O)N3CCCC3)cc2)n1N | 0.1
COc1ccc(N(CC(=O)Nc2cccc(C(=O)O)c2)S(=O)(=O)c2c(C)noc2C)cc1 | i
COC(=O)CN(c1cccc(C(C)=O)c1)S(C)(=O)=O | i
CCCNC(=S)NC1CC2CCC(C1)N2Cc1ccccc1 (stereo unspecified) | i
O=C(Nc1cccc(-c2nc3cc(Cl)ccc3o2)c1)C1CCCO1 (stereo unspecified) | 0.5
Cc1sc2nc(CN3CCCC3)nc(N3CCC(C(N)=O)CC3)c2c1C | 2.0
O=C1/C(=C/c2cccnc2)Sc2ccccc21 | i
O=C(Nc1ccccc1C(=O)NCc1ccccc1)c1ccco1 | i
CC(C)(C)Cc1nc(-c2ccccn2)no1 | 0.1
CC1CCCC(C)N1CCNC(=O)Nc1ccc(Cl)cc1 (stereo unspecified) | 0.1
O=C(N1CCCCC1)C1(c2ccccc2)CCOCC1 | 1.3

An excerpt; rates above refer to the full screens.
